RanGTP-Impb inh – disruptors of Ran-importin-beta complex formation – biochemical, FRET, CFP-Ran, YFP-importin-beta, homogeneous, primary screen | inhibition, % (no concentration beside the values) | cell-free CFP-Ran/YFP-importin-beta FRET ratio | 300,000 compounds, 1.1% hits | AID 2216;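 active = most replicates above 15%; inconclusive = exactly half above 15%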;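 note: 0% = DMSO wells and 100% = Ran loaded with GDP instead of GTP; wells of about 40 µL received 100 nL stock; the first replicate is given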
T cruzi inh – blocks replication of Trypanosoma cruzi; inhibition, % (no concentration beside the values); AID 1885; T. cruzi beta-gal in NIH3T3, luminescence, 90 h; 300,000 compounds, 1.4% hits;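 active = mean inhibition across valid replicates above about 55%, limit read from the data; inconclusive = mean below that limit but half or more replicates reach it; inactive = mean below it, under half of replicates reach it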;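 note: signal also drops with host cell toxicity which is not excluded here; 0% = plate median of DMSO wells and 100% = zero luminescence signal; higher percent means less beta-gal luminescence so fewer parasites; stock transfer was 50 nL into about 50 µL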
Calb FLC – C. albicans growth modulation with fluconazole. growth inhibition, % (concentration not given with the values). AID 1979. C. albicans CaCi-2 (fluconazole-resistant clinical isolate) + fluconazole, Alamar Blue growth, 48 h. 300,000 compounds, 0.57% hits;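 active = most replicates above 75%; inconclusive = exactly half above 75%; inactive = most below 75%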;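 note: all wells also contain fluconazole at 8 µg/ml as a sub-toxic cotreatment; 0% = median of DMSO wells and 100% = median of geldanamycin control wells; wells of about 8 µL received 7.5 nL stock; the first replicate is given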
Bfl-1 A1 inh – inhibitors of the anti-apoptotic protein A1, read as caspase activation. MEF A1-2A-BIM cells, Caspase-Glo 3/7 luminescence, 3 h; percent of clofoctol response, vehicle zero. caspase activation, % (test concentration not listed). 330,000 compounds, 0.066% hits;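 active = over half of replicate activation scores above 10%, or exactly half above 10 with the replicate mean above 10; inconclusive = replicate mean below 10 yet half the replicates above 10; inactive = over half of replicates below 10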;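 note: wells of about 30 µL received 50 nL stock; many hits fall short of the cut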
Vif A3G – HIV-1 Vif–A3G interaction blockers – biochemical, TR-FRET, GST-Vif 1-94, biotin-A3G peptide, dose response retest, primary screen (AID 1117319). TR-FRET GST-Vif / biotin-A3G peptide binding; higher % means a stronger effect; test concentration not given here; strong numbers were not always called active. inhibition, %, or IC50 in µM where a hit was titrated. 260,000 compounds, 0.57% hits;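 active = above the screen mean plus three standard deviations and confirmed in dose response; inconclusive = results disagree or hit not tested in dose response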;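 note: Vif residues 1-94 fused to GST binding biotinylated APOBEC3G peptide 110-148; 0% = full assay without inhibitor and 100% = GST in place of GST-Vif; retest series ran down from 100 µM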
MLL AF4-AF9 inh – blocks AF4 peptide binding to human AF9 | 350,000 compounds, 0.47% hits | AlphaScreen, biotin-AF4 peptide binding to FLAG-AF9 | inhibition, % at 10 µM;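 active = every replicate reaching a set inhibition limit, whatever the replicate mean, cut at about 25% in these data; inconclusive = mean inhibition reaches that limit but some replicates miss it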;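 note: 0% = plate neutral control median and 100% = total signal loss; the record names both 10 and 1 µM as test concentration; the first replicate is given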
Target sequence (P42568 whole entry, looked up): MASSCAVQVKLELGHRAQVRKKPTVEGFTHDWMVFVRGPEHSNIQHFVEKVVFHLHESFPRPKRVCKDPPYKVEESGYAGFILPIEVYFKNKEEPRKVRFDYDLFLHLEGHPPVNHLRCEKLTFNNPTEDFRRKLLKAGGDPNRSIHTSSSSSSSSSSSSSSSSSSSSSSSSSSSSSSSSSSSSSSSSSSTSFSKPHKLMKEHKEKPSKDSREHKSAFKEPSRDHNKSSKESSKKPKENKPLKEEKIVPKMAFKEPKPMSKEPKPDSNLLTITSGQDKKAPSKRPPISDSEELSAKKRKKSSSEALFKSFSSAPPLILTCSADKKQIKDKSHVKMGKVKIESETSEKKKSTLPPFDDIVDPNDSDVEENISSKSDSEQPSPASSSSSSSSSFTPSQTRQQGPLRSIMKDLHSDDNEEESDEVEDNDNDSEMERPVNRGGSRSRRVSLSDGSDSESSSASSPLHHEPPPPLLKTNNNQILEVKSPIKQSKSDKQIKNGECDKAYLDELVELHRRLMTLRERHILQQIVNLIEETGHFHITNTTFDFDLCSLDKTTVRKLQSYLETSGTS
Beta cell apopt – blocks beta cell apoptosis; INS-1E cytokine-induced death, ATP luminescence, 48 h; percent of positive-control rescue, neutral wells zero; 300,000 compounds, 0.8% hits; protection from apoptosis, % (test concentration not listed); AID 435005;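 active = all replicates at 75% or more, or half of them and the mean; inconclusive = half reach 75% but not the mean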;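 note: 0% = cytokine-treated negative control wells and 100% = positive control rescue; higher means more ATP so stronger rescue from cytokine killing; wells of about 40 µL received 100 nL stock; the first replicate is given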
rRNA inh HTS – selective bacterial rRNA inhibition in E. coli. E. coli WT GFP vs humanized-ribosome RFP mutants, fluorescence, 24 h; active compounds read low; DMSO median 0, no signal -100. GFP signal change (wild-type ribosome), % (test concentration not listed). 350,000 compounds, 1.6% hits;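 active = significant combined selectivity score with lowered wild-type GFP, culture density cut under 30%, mutant RFP and density less affected; inactive = any of these conditions unmet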; note: one replicate is shown; some compounds called inactive have numbers as strong as hits
rRNA inh HTS OD600 – also measured in rRNA inh HTS; calls as there; OD600 change, %; measured here: OD600 growth;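 optical density of the mix in the first replicate; 0 = DMSO median and -100 = no signal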
rRNA inh HTS RFP – also measured in rRNA inh HTS; calls as there; RFP signal change, %; measured here: RFP humanized mutant strains;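 first replicate; 0 = DMSO median and -100 = no signal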
The depositor's hits bear a star; ? = inconclusive; nt = not tested or not shown.

SMILES	RanGTP-Impb inh	T cruzi inh	Calb FLC	Bfl-1 A1 inh	Vif A3G	MLL AF4-AF9 inh	Beta cell apopt	rRNA inh HTS	rRNA inh HTS OD600	rRNA inh HTS RFP
CNC(=S)N(Cc1cccs1)Cc1cc2cc(OC)ccc2[nH]c1=O	1.3	15	-10	-0.3	nt	nt	-1	nt	nt	nt
COc1ccc(C(=O)NCC(=O)OCC(=O)N2N=C(c3ccc(Cl)cc3)CC2c2ccco2)cc1OC (centres undefined)	-0.1	-5	-5	0.1	-1%	5.3	3	-6	-13	4.5
CSc1nc(=S)n(-c2ccccc2)c(C)c1C(C)=O	0.1	-18	8	0.8	0%	-0.3	-3	6	8	-1.2
Cc1ccccc1-c1nc2cc(Cl)ccc2o1	5.5	-8	18	-4.1	1%	nt	1	nt	nt	nt
Cc1cccc(OCC(=O)O/N=C(\N)c2ccccn2)c1	5.4	-4	-3	-2.1	0%	-44	nt	-7	8	3.9
C/C(=N\NC(=O)c1ccccc1-n1cccc1)C1CC1	11	-1	25	-0.3	nt	nt	2	nt	nt	nt
CC1(C)Cc2nc3sc4c(OCc5ccccc5)ncnc4c3cc2CO1	8.9	0	-1	1.0	-20%	nt	13	nt	nt	nt
CC(=O)c1sc(-c2ccc(F)cc2F)nc1C	0.2	-16	-37	-2.3	-24%	-1.0	-2	nt	nt	nt
CC1=C(C(=O)OC2CCCCC2)C(c2ccc(C)o2)C2=C(CCCC2=O)N1 (centres undefined)	-2.5	13	-18	0.2	74%	nt	8	nt	nt	nt
Cc1ccc2nc3n(c(=O)c2c1)-c1ccc(Cl)cc1C(=O)NC3Cc1ccccc1 (centres undefined)	nt	nt	nt	0.8	nt	-1.4	-3	3	6	6.4
CC(=O)c1c(C(C)=O)c(C)n(Cc2ccc(Cl)cc2)c1C	-0.3	-4	-6	-0.1	-8%	nt	-2	nt	nt	nt
O=C(CCc1ccccc1)Nc1ncn[nH]1	0.0	-31	6	-0.9	?	nt	-1	nt	nt	nt
O=C(NCc1ccccn1)c1ccc(NC(=O)c2ccco2)cc1	-4.4	-5	-3	-0.1	2%	nt	-5	nt	nt	nt
COc1cc(NC(=O)CSc2nc3c(C)ccc(C)c3cc2C)c(C(=O)O)cc1OC	-1.1	2	-2	-0.2	-13%	0.9	-2	9	16	-2.4
CCN(CC)CCNCc1ccc(-c2ccc(Cl)cc2)o1	9.0	31	-14	-0.6	-9%	9.0	-3	6	1	5.3
COc1ccc(S(=O)(=O)N2CCN(Cc3ccccc3)CC2)cc1	1.4	4	?	1.0	2%	nt	1	nt	nt	nt
CCOc1cc(/C=C2/C(=O)ON=C2C)ccc1OCc1ccccc1	-4.3	-39	-1	0.4	18%	-1.6	70	9	13	3.3
O=C(N[C@@H]1C/C=C\C[C@H](CC(=O)N(CCO)Cc2ccccc2)C(=O)NC[C@@H](c2ccccc2)OC1=O)OCC1c2ccccc2-c2ccccc21	nt	nt	nt	-0.1	nt	-1.0	26	4	8	-0.2
O=C(NCCc1ccc(F)cc1)c1ccc([N+](=O)[O-])cc1	-3.7	7	-3	-0.4	26%	0.0	1	22	9	0.4
Cc1cc(NC(=O)c2ccc(S(=O)(=O)N3CCCC3)cc2)nc2c1c(=O)oc1ccccc12	4.9	4	5	nt	11%	nt	nt	nt	nt	nt
CCOC(=O)C1(CCCc2ccccc2)CCN(CCCn2cccn2)CC1	0.4	-16	-14	0.8	3%	-2.0	2	nt	nt	nt
Cc1cccc(CSC2=NCCN2C(=O)c2ccco2)c1	-1.8	6	5	-0.1	9%	-2.0	-1	7	7	2.7
CCc1cc2cc(C(=O)N3CCN(Cc4ccccc4)CC3)sc2s1	-1.7	26	18	-1.9	-6%	nt	-7	nt	nt	nt
CCOc1ccc2c(c1)C(C)=CC(C)(C)N2S(=O)(=O)c1ccc(F)cc1	2.9	-12	1	1.2	nt	-5.5	nt	-21	-17	-1.2
CN1CCN(NC(=O)CN2C(=O)/C(=C/c3ccccc3Cl)SC2=S)CC1	-5.5	-16	-14	-0.3	2%	3.0	4	-9	8	11
O=C1CCC/C1=C/Nc1ccc(Cl)cc1	5.1	-5	-10	-1.0	0%	-0.5	13	5	2	-2.3
Cc1ccc(NCc2nnc(SCC#N)o2)c(C)c1	-4.9	12	-16	0.7	-5%	nt	-4	nt	nt	nt
Cc1ccc(CSCC(=O)NCc2cccs2)cc1	-1.6	0	0	0.9	2%	-4.9	-7	12	0	1.2
CCC(CC)C(=O)Nc1nnc(S(=O)(=O)N2CCCCCC2)s1	-1.9	5	0	0.4	nt	-5.7	-1	1	-7	0.2
Cc1ccc2nc(SCC(=O)NC3CCCc4ccccc43)[nH]c2c1 (centres undefined)	2.4	4	-2	1.0	nt	nt	-7	nt	nt	nt
COc1cccc(Nc2nc(CN3CCOCC3)nc3sc4c(c23)CCCC4)c1	-2.1	27	22	-0.1	nt	3.2	nt	-54	-81	-24
CC1(C(=O)OCC(=O)c2c[nH]c3ccccc23)CC1(Cl)Cl (centres undefined)	2.8	9	-10	-2.1	15%	nt	0	nt	nt	nt
COCC(C)n1c(C)cc(C(=O)COC(=O)c2c(C)nn(-c3ccccc3)c2C)c1C (centres undefined)	-2.8	28	3	-0.4	1%	nt	3	nt	nt	nt
CC(C)(C)NC(=O)C(c1ccccn1)N(C(=O)c1csnn1)C1CCCCC1 (centres undefined)	0.9	-9	-17	0.1	-10%	-24	-1	-4	14	-2.1
COc1ccc2[nH]cc(CCNC(=O)Cc3ccc(F)cc3)c2c1	0.4	-24	28	1.0	nt	3.3	0	4	2	1.9
CCCCNC(=O)Cn1cnc2c(cnn2-c2ccc(C)cc2)c1=O	0.3	-12	-2	0.0	nt	-12	3	-5	2	-5.2
Cn1ccc(-c2ccccc2)c(C#N)c1=O	1.9	-4	-1	0.5	-8%	-1.8	4	3	-2	-0.1
CCc1nnc(NC(=O)C2CCCN2C(=O)Nc2ccccc2)s1 (centres undefined)	3.0	-8	-6	0.1	nt	-0.8	8	0	7	0.5
C=CCNC(=O)c1sc(=S)n(-c2ccc(C(=O)OCC)cc2)c1N	3.9	8	-1	0.6	12%	15	-8	-34	-55	-16
O=c1[nH]c(N2CCOCC2)nc2c1CCCC2	-4.1	-5	2	0.8	0%	nt	nt	nt	nt	nt
Cc1cc(S(=O)(=O)N2CCC(N3CCCCC3)CC2)ccc1-n1cnnn1	2.3	-3	-17	0.2	32%	nt	-9	nt	nt	nt
CC1CCN(CC(=O)Nc2nc(-c3ccccc3)cs2)CC1	1.3	12	3	2.9	-4%	1.3	2	-23	-23	-3.3
Cc1ccc(S(=O)(=O)N2CCN(C(C)C(=O)Nc3ccccc3-c3ccccc3)CC2)cc1 (centres undefined)	-0.7	21	-9	1.1	-2%	2.4	11	7	0	8.4
COc1ccc(-c2nc(C#N)c(NC(C)c3ccccc3)o2)cc1OC (centres undefined)	2.2	11	-2	0.6	-3%	nt	8	nt	nt	nt
Nn1cc(-c2ccccc2)nc1SCC(=O)N1CCN(S(=O)(=O)c2ccc3ccccc3c2)CC1	-4.5	25	-8	0.8	16%	nt	-9	nt	nt	nt
O=C(c1cccnc1)N1CCN(Cc2ccc3c(c2)OCO3)CC1	5.6	-9	6	1.5	4%	nt	-4	nt	nt	nt
Cc1ccc(S(=O)(=O)NC2(C(F)(F)F)NC(=O)N(C)C2=O)cc1 (centres undefined)	?	22	61	0.2	-2%	-1.2	-8	8	-5	0.8
O=C(O)Cn1cc(CN2CCOCC2)c2ccccc21	2.0	-11	0	-0.3	nt	-5.2	nt	20	14	-0.8
CCCCN1C(=O)c2ccc(C(=O)N(C)CC(=O)Nc3ccc(OCC)c(OCC)c3)cc2C1=O	nt	nt	nt	-0.1	-7%	3.2	-4	-9	14	3.4
Cc1onc(-c2c(Cl)cccc2Cl)c1C(N)=S	-4.4	5	?	0.0	3%	2.4	-12	-1	-2	-2.0

Further results.
SMILES	RanGTP-Impb inh	T cruzi inh	Calb FLC	Bfl-1 A1 inh	Vif A3G	MLL AF4-AF9 inh	Beta cell apopt	rRNA inh HTS	rRNA inh HTS OD600	rRNA inh HTS RFP
Cc1ccc(C(=O)NCC(=O)Nc2cccc(C(F)(F)F)c2)cc1	3.4	-12	-4	-0.2	11%	nt	1	nt	nt	nt
Cc1ccc(S(=O)(=O)NN2C(=O)c3ccccc3NC2c2cccc(O)c2)cc1 (centres undefined)	6.2	4	-1	-0.1	11%	-2.1	-6	7	6	0.1
O=C(CSc1ccccn1)c1ccc2c(c1)OCO2	-5.9	-19	-17	-3.3	11%	nt	2	nt	nt	nt
O=C(COc1ccc(Br)cc1)N(Cc1ccccc1)c1ccccn1	2.3	-21	14	-0.5	18%	nt	1	nt	nt	nt
O=C(O)CC/C(=N\Nc1ccc(S(=O)(=O)N2CCOCC2)cc1[N+](=O)[O-])c1cccs1	-2.2	?	-3	-0.5	?	13	4	-2	1	-8.2
CCCc1cc(=O)n2[nH]cnc2n1	-2.0	-10	-12	1.0	5%	nt	-5	nt	nt	nt
COc1ccc(C(NC(=O)CN2CCCCCC2)c2ccc(OC)cc2)cc1	-1.3	0	-9	-1.0	nt	7.6	-4	5	-3	0.2
CCCc1nn(C)c(C(=O)Nc2cccc(CC)c2)c1Cl	2.4	-2	-2	-3.2	5%	0.6	0	-22	-51	-5.6
Cc1ccc(S(=O)(=O)Nc2ccc(C(=O)NCc3ccccn3)cc2)cc1	-0.2	-14	-5	0.2	5%	-5.7	-10	0	3	0.4
CC(=O)OC(c1nc2ccccc2c(=O)n1C1CC2(OC1=O)c1ccccc1N1C(=O)C(C)(C)N(O)C12)C(C)C (centres undefined)	4.8	28	28	0.2	nt	1.6	nt	8	-4	9.6
COc1ccc(OC)c(-c2nn(-c3ccccc3)cc2C(=O)NCC2CCCO2)c1 (centres undefined)	2.2	-5	-12	0.0	-2%	0.6	3	3	2	1.6
O=C(OCCNc1ccc(C(F)(F)F)cc1[N+](=O)[O-])c1cc2ccccc2oc1=O	2.6	6	-8	-0.1	4%	-0.2	-2	-2	10	-3.3
Cc1sc2ncnc(Nc3ccc(N4CCOCC4)cc3)c2c1-c1ccccc1	-4.7	18	16	-0.8	nt	?	10	-15	-19	-1.6
Cc1ccccc1C(=O)Nc1sc2c(c1C(=O)O)CCC2	3.9	-11	-1	-4.1	4%	-4.3	-9	-14	-20	-5.1
CS/C(=N\S(=O)(=O)c1cccs1)Nc1ccc(F)c(Cl)c1	-2.2	-11	95*	-2.2	nt	-5.6	4	-13	-12	-0.3
OC[C@@H](O)[C@@H](O[C@H]1O[C@H](CO)[C@@H](O)[C@H](O)[C@H]1O)[C@H](O)[C@@H](O)CO	-3.9	0	nt	0.2	-9%	2.3	-4	-46	-73	2.6
CC(=O)C(CC(=O)N1CCCC1)C(=O)Nc1ccc(Cl)cc1 (centres undefined)	nt	nt	nt	1.0	nt	2.1	-1	2	9	0.4

Source: PubChem (several laboratories)

A portion of the library, so the mix of outcomes need not match the whole.
